Screening results: PubChem BioAssay, ICCB-Longwood Screening Facility, Harvard Medical School
Ab BasE inh – inhibitors of Acinetobacter baumannii siderophore enzyme BasE. purified BasE, fluorescence polarization binding displacement. inhibition, % (test concentration not listed). 84,000 tested, 0.1% active;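 active = both replicates above 25% with normal brightness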;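 also: 0% = negative plate control signal and 100% = positive plate control signal; stock transfer was 100 nL into about 30 µL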
KSHV LANA nucl – LANA-nucleosome interaction inhibition; 51,000 tested, 0.3% active; z-score (concentration not given with the values); FITC-LANA1-23 / chicken nucleosome fluorescence polarization; active compounds read low; AID 720717;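 active = both repeat wells score below -2 in polarization z-score versus plate sample wells, excluding overly bright wells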;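 also: 100 nL library stock added to about 30 µL; numbers are from one replicate; some results filed as inactive read as strong as hits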
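test system = FITC-LANA peptide and chicken nucleosomes | amount = 240 nM purified chicken nucleosomes (480 nM peptide binding sites), final | reagent = 50 nM FITC-LANA1-23 probe | medium = TEN-BT buffer, pH 7.5 | doses = single compound addition by pin transfer, 100 nL per well | timing = 10–45 min, room temperature | detection = fluorescence polarization | repeats = duplicate plates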
Starred values were filed as active, the others as inactive; nt = no result given; & = joins results of further samples. These rows are one share of the data; rates above refer to the full screens.

Molecule,Ab BasE inh,KSHV LANA nucl
Cc1ccc(CCNC(=O)CCn2cnc3onc(-c4ccc(F)cc4)c3c2=O)cc1,-0.3,nt
O=C(Nc1ccccc1)O/N=C1/CCCc2occc21,3.5,-0.47
Cc1cc(NC(=O)C2CCN(S(=O)(=O)c3ccccc3)CC2)ccc1-n1cnnn1,-15,0.36
Cn1ccsc1=NC(=O)c1ccc2c(c1)C(=O)N(Cc1ccccc1)C2=O,3.1,nt
CN1/C(=C\C(=O)COC(=O)CC2CCCC2)C(C)(C)c2ccccc21,-3.7,nt
CCn1c(C(=O)NCc2ccc(C)cc2)cc2oc3ccccc3c21,-0.3,1.6
CNC(=O)n1cc(Br)c(/C(N)=N\OCc2ccccc2)n1,-2.1,0.72
c1ccc(C(c2ccccc2)N2CCN(CCCc3c[nH]c4ccccc34)CC2)cc1,-1.2,nt
CN1CCN(C2=C(C(=O)Nc3ccc(Cl)cc3)CC/C2=C\c2ccccc2)CC1,-0.6,nt
CC1Cc2ccccc2N1C(=O)COc1ncnc2sccc12 (configuration not stated),1.7,nt
O=C(/C=C/c1cnc2ccccc2n1)N1CCN(S(=O)(=O)c2ccccc2)CC1,-0.4,nt
COc1ccc(Cn2c(CN3C(=O)c4ccccc4C3=O)nc3cccnc32)cc1,-0.6,0.39
O=C(C1CC2c3ccccc3C1c1ccccc12)N1CCOCC1 (configuration not stated),1.6,-0.019
CCC(C)NC(=O)Nc1cccc2ccccc12 (configuration not stated),3.5,1
CN(Cc1ccco1)C(=O)CSc1ccc2c(c1)OCCO2,1.9,nt
Cc1nc(-c2ccc(-c3ccno3)s2)no1,0.2,0.36
CC1=NN(c2ccccc2)C(=O)C1C1C(=O)N(c2ccccc2)N=C1C (configuration not stated),-0.8,0.73
Oc1ccc2ccccc2c1/C=N/c1nccs1,0.1,-1.2
O=C1CCCC2=C1C(c1ccccc1F)CC(=O)N2c1ccc(Br)cn1 (configuration not stated),3.6,-0.31
NC(=S)c1cc2ccccc2oc1=O,-30,nt

Reformatted: results already given.
Each structure is followed by: Ab BasE inh, KSHV LANA nucl
> CC1=NN(c2ccccc2)C(=O)C1C1C(=O)N(c2ccccc2)N=C1C (configuration not stated)
    -0.8, 0.73
> CCn1c(C(=O)NCc2ccc(C)cc2)cc2oc3ccccc3c21
    -0.3, 1.6
> CNC(=O)n1cc(Br)c(/C(N)=N\OCc2ccccc2)n1
    -2.1, 0.72
> c1ccc(C(c2ccccc2)N2CCN(CCCc3c[nH]c4ccccc34)CC2)cc1
    -1.2, nt
> Oc1ccc2ccccc2c1/C=N/c1nccs1
    0.1, -1.2

Additional compounds.
Molecule,Ab BasE inh,KSHV LANA nucl
N#C/C(=C/c1cccn1-c1ccc(Br)cc1)C(=O)NCc1ccco1,1.0,-0.15
CC(C)(NS(=O)(=O)c1cccs1)C(=O)O,2.0,0.94
CS(=O)(=O)N(CC(O)Cn1cc(/C=N/O)c2ccccc21)c1ccc(Cl)cc1 (configuration not stated),0.5,-0.29
COc1ccc(C(=O)Cn2c(-c3cccnc3)ccc(C#N)c2=O)cc1,-1.7,1
Oc1ccc2ccccc2c1/C=N/NC1=NCCC1,0.3,nt
Cc1nc(NCCNC(=O)c2ccco2)c2c(C)c(C)sc2n1,0.8,2.8
Cc1ccc(C(=O)N/N=C/c2c[nH]c3ccccc23)cn1,-0.3,-0.35
CC(OC(=O)c1ccc2ncsc2c1)C(=O)N1CCCCC1 (configuration not stated),-7.7,nt
O=C1/C(=C2/NCCN2C2CC(=O)N(c3ccccc3)C2=O)CC/C1=C\c1ccccc1 (configuration not stated),-0.1,nt
CN(C)c1ccc(C(=S)N2CCCC2)cc1Br,1.4,-0.78
Cc1nc(/N=C(\N)Nc2cccc(Cl)c2C)[nH]c(=O)c1C,2.2,0.29
O=C1CCN(C(=O)CCNC(=O)c2ccc(Cl)cc2)CC1,-2.6,nt
Cc1ccc(S(=O)(=O)/N=C(/NC(=S)Nc2ccccc2)c2ccccc2)cc1,2.3,nt
O=C(CCCc1ccccc1)Nc1ccccc1O,3.8,-0.46
C=C(C)CC1(NC(C)c2ccccc2)CCCCC1 (configuration not stated),-0.3,nt
Cn1c(=O)n(CCOc2ccc3ccccc3c2)c2ccccc21,2.0,-1.1
CC1CCCC(C)N1/N=C/c1ccc(N(C)C)cc1 (configuration not stated),0.2,nt
CCc1sc(-c2ccc(Cl)cc2)nc1C(=O)OC,2.6,nt
CCOC(=O)N1CCC(NC(=O)CNS(=O)(=O)c2ccc(Br)s2)CC1,2.4,-0.74
Cc1nc2sccn2c1C(=S)NC(=O)c1ccc(S(=O)(=O)N2CCCCCC2)cc1,8.9,nt
CCOc1ccc2oc(C(=O)OCC(=O)N3CCCc4ccccc43)c(C)c2c1,1.4,nt
O=C(NC1CCCCCC1)c1c(O)c2ccccc2[nH]c1=O,2.6,0.45
c1ccc(CN2CCSCC2)cc1,-3.7,0.85
S=c1nc2[nH]c3ccc(Br)cc3c2n[nH]1,2.3,0.11
Cc1cc2nsnc2c2nsnc12,-0.1,0.64
COC(=O)CC1Nc2ccccc2NC1=O (configuration not stated),-4.6,2.1
Cc1ccc2nc(NC(=O)CCCC(=O)O)sc2c1,4.5,-0.12
CCN(CC(=O)Nc1cc(Cl)ccc1C)CC(=O)N1CCOC1=O,0.5,nt
CN(C)S(=O)(=O)c1cccc(CSc2nc3ccccc3n2CCC#N)c1,-1.4,nt
N#Cc1cn(CC(=O)N2CCCC2)c2ccccc12,-1.1,-0.65
COc1cccc(OC)c1CN(C)C(=O)c1cnc(SC)cc1C(F)(F)F,nt,1.4
O=C(/C=C/c1ccco1)Nc1cccc(-c2nc3ccccc3o2)c1,-8.4,0.51
CC(Oc1ccccc1)C(=O)N[C@@H]1C(=O)N2[C@@H]1SC(C)(C)[C@@H]2C(=O)O (some centres not stated),-2.6,-0.39&1.3
CCCc1cc(=O)[nH]c(SCc2cc(C(=O)OC)c(C)o2)n1,-0.7,nt
COc1cc2[nH]c(=S)nc(Nc3ccc(NC(C)=O)cc3)c2cc1OC,1.1,-0.039
CCOC(=O)c1c(C)[nH]c(C)c1S(=O)(=O)NCC1CCN(Cc2ccccc2F)CC1,-1.2,nt
COc1ccc(Cl)cc1NC(=O)C(C)N1c2ccccc2CC1C (configuration not stated),1.1,nt
Cn1c2c(c3cc(Oc4ccccc4)ccc31)CCCC2=O,2.2,nt
S=C(NCCC1=CCCCC1)Nc1ccc2nsnc2c1,-1.1,nt
COC(=O)c1ccc(OC)c(I)c1,nt,0.15
O=C(CCn1ccc2cc(S(=O)(=O)N3CCCC3)ccc21)NC1CC1,0.1,nt
CCOC(=O)CSc1nc2c(cc1C#N)CCCC2,0.9,nt
CCOC(=O)c1cnn(C(=O)Cc2cccc(OC)c2)c1N,-0.3,nt
C/C(N)=C(/C#N)C(=O)CSc1ccccc1F,0.7,nt
Nc1nc(CSc2nnc3c(n2)[nH]c2ccccc23)cs1,0.7,nt
CC(C)CNS(=O)(=O)c1ccc(CCC(=O)Nc2ccc3c(c2)OCO3)cc1,-2.2,1.2
CC(CC(=O)Nc1nc(-c2cccs2)cs1)c1ccccc1 (configuration not stated),-1.0,nt
C=C1SC(Nc2ccc(C)cc2)=NC1(C)C,1.1,nt
Cc1cc(C(=O)N(CCc2ccccc2)c2nc3ccccc3s2)on1,0.9,nt
CCC(C)NC(=O)c1nc(-c2ccccc2)n(-c2ccccc2)n1 (configuration not stated),-4.7,nt
CCc1ccc(CNc2ccc3c(c2)ncn3CC)cc1,3.7,-0.065
CCC(=O)Nc1sc2c(c1-c1nc3ccccc3s1)CCN(C(C)=O)C2,1.3,-1.6
Cc1sc2ncnc(SCC(=O)NC(=O)c3cccn3C)c2c1C,-1.0,nt
C=CCSc1nnc(NC(=O)c2ccc3c(c2)SC2=NS(=O)(=O)CCN23)s1,3.0,nt
Cc1ccc(P(=Nc2ccccc2C(F)(F)F)(OCCN2CCOCC2)C(C)(C)C)o1 (configuration not stated),2.5,nt
Cc1cc(C(=O)CSc2nnc(-c3cccs3)o2)c(C)n1CCc1ccc(F)cc1,1.3,nt
CCCCCn1c(=O)c(Cc2ccccc2)c(O)c2ccccc21,2.5,-1.1
Cc1cc(C(=O)CSc2nnc3ccccn23)c(C)n1C,-1.1,nt
CC(C)Oc1cccc(NC(=O)Cc2ncc(C(F)(F)F)cc2Cl)c1,nt,-0.78
CO[C@H]1C[C@@H]2CC[C@@H](C)[C@@](O)(O2)C(=O)C(=O)N2CCCC[C@H]2C(=O)O[C@H](C(C)CC2CC[C@@H](O)[C@H](OC)C2)CC(=O)[C@H](C)/C=C(\C)[C@@H](O)[C@@H](OC)C(=O)[C@H](C)C[C@H](C)/C=C/C=C/C=C/1C (some centres not stated),0.3,-0.11

Continued:
Molecule,Ab BasE inh,KSHV LANA nucl
Cc1ccc(C(=O)NC2CCCCCC2)cc1NC(=O)c1ccco1,-3.4,nt
CCn1c(COC(=O)CCOc2cc(C)ccc2C)nc2cc(S(=O)(=O)N(C)C)ccc21,0.2,nt
CCN(CC)S(=O)(=O)Cc1ccccc1,-1.4,0.56
Cc1cccc(N2OC(C)(N(O)c3cccc(C)c3)CC2(C)C)c1 (configuration not stated),1.9,nt
Cc1cc(C(=O)Cn2c(C)nc3ccccc32)c(C)n1-c1c(C)n(C)n(-c2ccccc2)c1=O,-0.8,nt
O=C(Nc1cccnc1)c1ccc2snnc2c1,1.7,0.23
N#CCCn1cc(C(=O)CSc2ccccn2)c2ccccc21,32*,nt
O=C(CCN1CCC(c2ccc(Cl)s2)=N1)c1ccc(Cl)s1,-2.0,0.43
CCn1c(SCC(=O)Nc2cccc(Cl)c2C)nnc1C1CC1,1.2,0.43
O=C(CCc1ccccc1)Nc1nccs1,-0.1,-0.15
C=CCN(CC(=O)O)S(=O)(=O)c1ccc(Cl)cc1,0.3,nt
Nc1nc2ccccc2oc1=O,3.6,0.31
O=C(CCCN1C(=O)/C(=C\c2ccco2)SC1=S)Nc1ccc2c(c1)OCO2,0.1,0.36
CCn1cc(/C=N/O)c2ccccc21,-0.8,0.14
COc1ccc(C(CC(=O)Nc2cccnc2)N2Cc3ccccc3C2=O)cc1 (configuration not stated),2.6,-0.35
O=c1[nH]c2ccc(Nc3cc(N4CCOCC4)ncn3)cc2[nH]1,1.6,-0.099
CC(O)(CC(=O)O)C(F)(F)F (configuration not stated),0.2,nt
O=C(O)CCC(=O)N1CCc2cc(S(=O)(=O)NCc3cccs3)ccc21,1.4,-1.5
CC(OC(=O)c1cc(Cl)c(O)c(Cl)c1)C(=O)N1CCCCC1 (configuration not stated),1.9,nt
O=S(=O)(NCc1ccco1)c1ccccc1,nt,3.3
CN(C)c1nc(N(C)C)nc(N(C)C)n1,-0.1&3.2,0.4&-0.21&0.3&-0.086
COc1cc([C@@H]2c3cc4c(cc3[C@@H](O[C@@H]3O[C@@H]5CO[C@@H](C)O[C@H]5[C@H](O)[C@H]3O)[C@H]3COC(=O)[C@H]23)OCO4)cc(OC)c1O,nt,-0.28&-0.27
Cc1cnc(C(=O)OCC(=O)c2c[nH]c3ccccc23)cn1,-0.9,nt
Cc1cc(I)ccc1NC1CCOC1=O (configuration not stated),-0.9,nt
COC(=O)c1ccc(OC2OCCOC2Oc2ccc(C(=O)OC)cc2)cc1 (configuration not stated),-5.3,2.2
COc1ccc(-c2c(C)nn3c(N)c(C#N)cnc23)cc1OC,1.6,0.71
CN(C)S(=O)(=O)c1cccc(C(=O)Oc2ccc3c(c2)OCO3)c1,2.3,nt
C=CCn1c(SC)nc2sc(CC)cc2c1=O,-1.4,0.12
Cc1ccc2[nH]c(=S)n(C3CC4C=CC3C4)c(=O)c2c1 (configuration not stated),-1.3,nt
N#Cc1ccc(Cn2c(CC3CCS(=O)(=O)C3)nc3ccccc32)cc1 (configuration not stated),0.6,nt
Cc1cccc(NC(=O)CN(CC(=O)Nc2cccc(C)c2C)Cc2ccco2)c1C,0.6,nt
O=C(NC(=O)c1ccccc1F)NC1CC1,-3.5,1.5
COc1ccc(C(=O)COC(=O)c2ccc(S(=O)(=O)N(C)C)cc2)cc1,0.2,nt
NC(=O)C(c1ccccc1)c1ncc(C(F)(F)F)cc1Cl (configuration not stated),nt,0.27
COc1cc2c(cc1OC)C(Nc1ccc(Br)cc1)=NC(C)(C)C2,0.9,nt
COC(=O)C1=C(C)NC2=C(C(=O)CC(c3ccco3)C2)C1c1cccc(OC)c1 (configuration not stated),0.1,0.78
CCOC(=O)c1c(C)[nH]c(N=Nc2ccccc2)c1C,-0.5,nt
